High-throughput results (PubChem)
PrP 5UTR inh – suppresses PrP 5' UTR mRNA reporter expression; inhibition, % (no concentration beside the values); 0.35% of 340,000 active; AID 488862; cell-based PrP 5' UTR mRNA reporter, plate reader;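 active = every replicate at 50% or more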;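 note: 0 = median of the neutral control wells; tested in H4 reporter cells; numbers are from one replicate; inactives centre near -14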
RN4220 kill – kills Staphylococcus aureus RN4220; S. aureus RN4220 growth, OD600, 16 h; inhibition, % (no concentration beside the values); 0.33% of 330,000 active;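 active = z-score of -3 or lower and OD600 up to 0.18 on both plates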;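 note: plate controls were untreated cells for no effect and reference antibiotic for full effect; stock transfer was 100 nL into about 80 µL; one replicate is shown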
Autofluor counter – counter-screen for toxin protease inhibitors: compound fluorescence | AID 624483 | 3.1% of 360,000 active | fluorescence intensity (concentration not given with the values) | compound autofluorescence counterscreen, microsphere flow cytometry; hits give high values;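 active = at least 3 SD above the mean of all compounds, about 16000 in these data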;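 note: 100 nL of 1 mM stock went into each well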
Mtb hypoxia rep – inhibitors of hypoxia-regulated fluorescent reporter in Mycobacterium tuberculosis | M. tuberculosis hypoxia-regulated fluorescent reporter, fluorescence | fluorescence inhibition, % (concentration not given with the values) | 0.1% of 300,000 active | AID 1159583;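 active = 35 to 45% if threefold the growth effect, above 45% if 1.5-fold the growth effect; inactive = the rest, general growth blockers included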;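 note: wells of about 50 µL received 100 nL stock; 0% = vehicle wells and 100% = reference inhibitor wells; whole bacteria with a GFP reporter of the hypoxia response; strong numbers were not always called active; many hits fall short of the cut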
BJeLR viability – BJeLR cell viability loss; inhibition, % (concentration not given with the values); BJeLR (HRASV12) viability, CellTiter-Glo ATP luminescence, 48 h; reference of the scale not given here; 0.17% of 300,000 active;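 active = replicate mean above 50%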;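 note: 50 nL library stock added to about 25 µL; numbers are from one replicate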
Sa ugtP lethal – kills S. aureus RN4220 lacking UgtP | 0.54% of 330,000 active | S. aureus RN4220 ugtP deletion, OD600 growth, 16 h; some inactives read as strong as hits | growth inhibition, % (no concentration beside the values);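 active = z-score under -3 and OD600 up to 0.15 on both plates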;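 note: plate controls were untreated wells for no effect and antibiotic for full effect; wells of about 80 µL received 100 nL stock; the first replicate is given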
Mtb hypoxia rep growth – further read-out of Mtb hypoxia rep, marked with its call; growth inhibition, %; measured here: M. tuberculosis growth (absorbance);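 0% = vehicle and 100% = reference antibiotic; read after six days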
Starred values were filed as active, the others as inactive; · = not tested or not shown. Not a hit list; any-hit rate near 4%.

SMILES | Mtb hypoxia rep | Mtb hypoxia rep growth | RN4220 kill | PrP 5UTR inh | BJeLR viability | Sa ugtP lethal | Autofluor counter
O=S(=O)(c1cccc2ccccc12)N1CCCCC1 | 15 | 7 | 3.8 | -2 | -9 | -4 | 5348
CN1CC(COCc2ccccc2)Oc2ccccc2S1(=O)=O (centres undefined) | 3 | -3 | 1.0 | -25 | · | 7 | 3948
c1ccc(-n2nnnc2-n2ccnc2)cc1 | 11 | 6 | 7.0 | -6 | -6 | 2 | 3283
CCOc1ccc(NC(=O)C2CCCN(S(=O)(=O)c3c(C)noc3C)C2)cc1 (centres undefined) | -6 | -8 | -2.1 | -6 | 8 | 1 | 5402
O=C1[C@H]2[C@@H](c3ccc(F)cc3)N3C(=O)N(c4ccccc4)C(=O)[C@@]3(Cc3ccc(Cl)cc3)[C@H]2C(=O)N1C1CCCCC1 | -1 | 2 | -10 | -10 | -7 | -15 | 3959
COc1cc(OC)c(C=NNC(=O)c2ccc([N+](=O)[O-])cc2)cc1Br | 1 | 2 | 3.5 | · | · | -2 | ·
Cc1cc2cc(CCNC(=O)c3ccc(Br)o3)c(=O)[nH]c2cc1C | · | · | 4.4 | 16 | -5 | -16 | 4690
O=C(CSc1ncn(-c2ccccc2)n1)Nc1nc2ccccc2s1 | 2 | -3 | 5.3 | 2 | -10 | -9 | 22783*
COc1ccccc1CC(NC(C)=O)C(=O)NC1CCN(S(=O)(=O)c2ccc(NC(C)=O)cc2)CC1 (centres undefined) | 2 | 8 | 3.2 | -28 | 0 | -3 | 3583
COc1ccc(C(=O)CSc2nnc(CN3CCCCC3)n2-c2ccc(Cl)cc2)cc1OC | 7 | 7 | 7.2 | 7 | -3 | -6 | 2770
Cc1ccc(-c2cc(C(F)(F)F)n3nc(C(=O)NCCCn4ccnc4)cc3n2)cc1C | -2 | 13 | 0.7 | -7 | -13 | -5 | 11598
Cc1ccc(COc2cccc3c2CCN(Cc2ccc(F)cc2)C3=O)cc1 | -4 | 1 | -12 | -25 | 7 | 6 | 2175
Cc1noc(C)c1/C=N/Nc1ccccn1 | · | · | · | -7 | 1 | · | 4292
O=C(O)c1ccc(N/N=C/c2ccc(-c3cccc(Cl)c3)o2)cc1 | · | · | · | -136 | 18 | · | 4175
O=C(CCCOc1ccccc1)Nc1cccc(S(=O)(=O)N2CCCCCC2)c1 | 2 | 11 | 2.8 | -1 | · | -5 | 4014
COc1ccc(S(=O)(=O)NCC(=O)N(CC(=O)NCC2CCCO2)c2c(C)cccc2C)cc1 (centres undefined) | · | · | 12 | -4 | · | 1 | 3747
COC(=O)[C@H](Cc1c[nH]c2ccccc12)NC(=O)Nc1ccccc1OC | 7 | 7 | 2.9 | -13 | -6 | 3 | 4723
COc1cc(OC)c(OC)cc1CNC(=O)c1cc(=O)[nH]c2ccccc12 | 2 | 2 | 1.2 | -4 | 0 | 3 | 5416
O=C1CC(=O)C(n2cncn2)C(c2c(F)cccc2Cl)C1 (centres undefined) | 3 | 10 | 3.6 | -26 | 0 | 4 | 22544*
COc1ccc(C2=NN(c3ccccc3)C(=O)/C2=C\c2ccc(O)c(OC)c2)cc1 | -6 | 5 | 1.6 | -14 | -2 | 5 | 2388
O=C(O)c1cccc(NC(=O)c2ccc3c(c2)C(=O)N(c2ccccc2)C3=O)c1 | 8 | 7 | -0.6 | -17 | 11 | 17 | 3487
CC(=O)NCC(=O)OCC(=O)c1ccc(C)cc1 | 5 | 8 | 4.4 | -10 | 6 | -2 | 2868
Cc1cc(=O)oc2cc(OCC(=O)N3CCN(C(=O)c4ccco4)CC3)ccc12 | 1 | 11 | 9.4 | -16 | 4 | 5 | 4514
CCN1CCN(CC(=O)Nc2cc(C)on2)CC1 | 3 | -1 | 2.0 | -19 | 7 | 6 | 1955
Cc1oc2cc(Br)c(O)c(Br)c2c1C(=O)c1ccccc1 | 10 | 6 | 26 | -12 | 8 | 13 | 4001

In a second layout: entries from further up.
Screens in order: Mtb hypoxia rep | Mtb hypoxia rep growth | RN4220 kill | PrP 5UTR inh | BJeLR viability | Sa ugtP lethal | Autofluor counter
O=C(CSc1ncn(-c2ccccc2)n1)Nc1nc2ccccc2s1
 : 2 | -3 | 5.3 | 2 | -10 | -9 | 22783*
COc1ccccc1CC(NC(C)=O)C(=O)NC1CCN(S(=O)(=O)c2ccc(NC(C)=O)cc2)CC1 (centres undefined)
 : 2 | 8 | 3.2 | -28 | 0 | -3 | 3583
COc1ccc(C(=O)CSc2nnc(CN3CCCCC3)n2-c2ccc(Cl)cc2)cc1OC
 : 7 | 7 | 7.2 | 7 | -3 | -6 | 2770
Cc1ccc(-c2cc(C(F)(F)F)n3nc(C(=O)NCCCn4ccnc4)cc3n2)cc1C
 : -2 | 13 | 0.7 | -7 | -13 | -5 | 11598
Cc1ccc(COc2cccc3c2CCN(Cc2ccc(F)cc2)C3=O)cc1
 : -4 | 1 | -12 | -25 | 7 | 6 | 2175
Cc1noc(C)c1/C=N/Nc1ccccn1
 : · | · | · | -7 | 1 | · | 4292
O=C(O)c1ccc(N/N=C/c2ccc(-c3cccc(Cl)c3)o2)cc1
 : · | · | · | -136 | 18 | · | 4175
O=C(CCCOc1ccccc1)Nc1cccc(S(=O)(=O)N2CCCCCC2)c1
 : 2 | 11 | 2.8 | -1 | · | -5 | 4014
COc1ccc(S(=O)(=O)NCC(=O)N(CC(=O)NCC2CCCO2)c2c(C)cccc2C)cc1 (centres undefined)
 : · | · | 12 | -4 | · | 1 | 3747
COC(=O)[C@H](Cc1c[nH]c2ccccc12)NC(=O)Nc1ccccc1OC
 : 7 | 7 | 2.9 | -13 | -6 | 3 | 4723
COc1cc(OC)c(OC)cc1CNC(=O)c1cc(=O)[nH]c2ccccc12
 : 2 | 2 | 1.2 | -4 | 0 | 3 | 5416
O=C1CC(=O)C(n2cncn2)C(c2c(F)cccc2Cl)C1 (centres undefined)
 : 3 | 10 | 3.6 | -26 | 0 | 4 | 22544*
COc1ccc(C2=NN(c3ccccc3)C(=O)/C2=C\c2ccc(O)c(OC)c2)cc1
 : -6 | 5 | 1.6 | -14 | -2 | 5 | 2388

Next part.
SMILES | Mtb hypoxia rep | Mtb hypoxia rep growth | RN4220 kill | PrP 5UTR inh | BJeLR viability | Sa ugtP lethal | Autofluor counter
COc1ccccc1NC(=O)CCS(=O)(=O)c1ccc2c(c1)oc(=O)n2C | 13 | 10 | -0.2 | -13 | -8 | 3 | 5050
O=C(Cc1nc2ccccc2[nH]c1=O)c1ccccc1 | -4 | 6 | 17 | -135 | -2 | 9 | 4104
O=C(Nc1c(-c2cccs2)nc2ccccn12)c1ccccc1F | 4 | 3 | 1.9 | 82* | -6 | 1 | 4335
O=C(CN(Cc1ccco1)C(=O)CNS(=O)(=O)c1ccccc1)NC1CCCCC1 | · | · | -0.4 | -10 | 1 | 0 | 2789
CCOC(=O)c1c(NC(=O)c2cccnc2Cl)sc(C(=O)N(C)C)c1C | 5 | 4 | 6.5 | -8 | -5 | -1 | 9660
Cc1ccc(-n2nnc3c(=O)n(CC(=O)N4CCCC4)cnc32)cc1 | 3 | 4 | 2.4 | -40 | 2 | 1 | 9754
CCOc1cc(CNC(=O)CN2C(=O)c3ccccc3S2(=O)=O)ccc1OC | 5 | 4 | 2.7 | -10 | -8 | -1 | 8408
S=C(NCCN1CCOCC1)Nc1cccc(Cl)c1 | 12 | 9 | 2.3 | 5 | 2 | 12 | 10045
Cc1nn(C)c(C)c1Sc1ccccc1N | 1 | 3 | 3.3 | -26 | 2 | 8 | 3895
NS(=O)(=O)c1ccc(CCNC(=O)C2CCN(S(=O)(=O)c3ccc(Br)s3)CC2)cc1 | -6 | 0 | 2.8 | -19 | 0 | 5 | 3398
CN(C)CCn1c(=O)n(C2CCCCC2)c(=O)c2c3c(sc21)CCCCC3 | 10 | 5 | 1.5 | -13 | 9 | 1 | 3498
CCOc1ccc(CSc2nc(C)cc(COC)c2C#N)cc1OCC | 14 | 6 | -4.1 | -20 | 8 | 7 | 4450
COc1ccc(/C=C2\SC(=S)N(CCC(=O)NC3=NCCS3)C2=O)cc1OC | 4 | 17 | 4.3 | -1 | 10 | -1 | 2898
CC(=O)c1ccc(N2CCN(C(C)C(=O)NC3CCCc4ccccc43)CC2)cc1 (centres undefined) | 8 | -3 | -1.1 | -7 | -6 | -7 | 2060
CC(O)Cc1nsc(NC(=O)c2ccc(Br)o2)n1 (centres undefined) | -1 | 8 | 2.3 | -7 | -5 | 4 | 13906
COc1cccc2cc(C(C)N(CCCN3CCOCC3)C(=O)Nc3ccc(Cl)cc3)oc12 (centres undefined) | 6 | 7 | 5.7 | -12 | 3 | 0 | 2779
c1coc(CN2CCN(C(c3cccs3)c3nnnn3C3CCCC3)CC2)c1 (centres undefined) | · | · | 12 | -13 | -4 | 12 | 3214
O=C(COc1c(CO)cc(Br)cc1CO)NC1CCCc2ccccc21 (centres undefined) | 2 | -1 | 2.8 | -29 | -2 | 3 | 2532
Cc1c(NS(=O)(=O)c2ccc(NC(=O)CCC(=O)O)cc2)c(=O)n(-c2ccccc2)n1C | 7 | 6 | 4.2 | -9 | 0 | 7 | 3051
CCCCC(O)(CCCC)C(=O)NN(C(=O)c1cccnc1Cl)c1ccccc1 | 8 | 12 | 3.5 | -13 | -1 | 8 | 4179
Cc1cccc2c1cnn2C(=O)Nc1ccccc1Cl | -4 | -5 | -2.0 | -69 | -3 | 9 | 3281
Cc1ccc(C)c2c1[nH]c1ccccc12 | · | · | -6.7 | -8 | 3 | 27 | 4343
Cc1cccc(N2CCN(C(=O)CSc3nc4ccccc4nc3N3CC(C)OC(C)C3)CC2)c1C (centres undefined) | -4 | 2 | -2.4 | -12 | 10 | -17 | 5582
COc1cccc(C2c3c(C)nn(-c4ccc([N+](=O)[O-])cc4)c3N=C3C(=O)Nc4ccccc4N32)c1 (centres undefined) | -16 | 9 | 6.3 | -6 | -6 | 23 | 3467
COc1ccc2c(c1)[nH]c1c(=O)n(N=CC3C(C)C=C(C)CC3C)c(=O)[nH]c12 (centres undefined) | 10 | 4 | 6.3 | · | · | -1 | ·

(list continues)
SMILES | Mtb hypoxia rep | Mtb hypoxia rep growth | RN4220 kill | PrP 5UTR inh | BJeLR viability | Sa ugtP lethal | Autofluor counter
CN1CCN(C(=O)c2ccc(Cl)c(S(=O)(=O)N3CCCCCC3)c2)CC1 | 14 | 5 | 6.5 | 4 | 0 | 7 | 3180
CCCc1oc2c(c(=O)c1CC)C(=O)CC(C)(C)C2 | -6 | 5 | 3.3 | -25 | 15 | -3 | 5766
Cc1c(NC(=O)c2cccc(NC(=O)Cc3c(F)cccc3Cl)c2)c(=O)n(-c2ccccc2)n1C | 5 | -7 | 6.6 | -11 | · | 12 | 2960
FC(F)(F)C1CC(c2cccs2)Nc2ncnn21 (centres undefined) | · | · | 0.7 | -16 | -4 | 6 | 2560
COC(=O)c1cnc(SC)nc1C | -7 | 7 | -4.5 | -26 | -13 | -16 | 20134*
O=C1NC(=Nc2ccc(Cl)cc2)SC1Cc1cc(Cl)ccc1Cl (centres undefined) | 2 | 1 | -3.3 | -28 | -5 | -3 | 2477
O=C(CCN1C(=O)/C(=C/c2ccccc2Cl)SC1=S)Nc1ccccc1C(=O)O | 7 | 15 | 20 | -13 | 1 | 19 | 3727
CCC(C)NC(=O)CN(C)S(=O)(=O)c1ccc2c(c1)c(=O)n(C)c(=O)n2C (centres undefined) | 3 | 3 | 2.5 | -8 | 1 | 1 | 5628
CCOc1cc(C2C3=C(CC(C)(C)CC3=O)N(CCOC)C3=C2C(=O)CC(C)(C)C3)ccc1OC | 16 | 11 | -1.2 | -29 | 5 | 14 | 3438
CCOC(=O)C(=O)Nc1cc([N+](=O)[O-])ccc1C | 3 | 9 | 3.7 | 16 | -2 | 4 | 2112
O=C(COc1ccc2c(-c3ccccc3)cc(=O)oc2c1)NCCN1CCOCC1 | 4 | 5 | 2.7 | -13 | 6 | 5 | 4158
COc1cc(NC(=O)CCCNC(=O)Cn2cnc3sc(C)c(C)c3c2=O)cc(OC)c1OC | 0 | -1 | -2.9 | -14 | -3 | -5 | 4925
COc1cccc(CC(NC(C)=O)C(=O)NC2CCN(S(=O)(=O)c3ccc(F)cc3)CC2)c1OC (centres undefined) | 13 | 7 | 8.3 | -2 | -8 | 4 | 2576
CS(=O)(=O)N(CC(N)=O)c1ccc2c(c1)OCO2 | 17 | 12 | -9.4 | -5 | -10 | -3 | 2877
CCOc1ccccc1NC(=O)C(=O)N/N=C/c1cc(Br)ccc1O | · | · | · | 23 | 13 | · | 4860
O=C(Cc1ccccc1)N/N=C/c1ccc[nH]1 | · | · | · | -13 | -4 | · | 3696
